PD-1 reversal: activators reversing PD-1 mediated T-cell inhibition, primary screen, luminescence, primary human CD4 T cells, PD-L1 beads; CellTiter-Glo 96 h; 29,000 tested, under 10 active; AID 2316, 2010; activation, % (test concentration not listed);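 active = replicate mean of 50% or more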;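 note: 0% = median vehicle wells and 100% = positive control; 100 nL library stock added to about 50 µL; numbers are from one replicate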
Hedgehog inh: Hedgehog pathway signaling inhibitors, primary screen, luminescence, Shh-LIGHT2 cells, Gli-luciferase. Shh-LIGHT2 Gli-luciferase reporter, 30 h. inhibition, % (concentration not given with the values). actives 2.1% (n = 22,000);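 active = replicate mean of 65% or more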;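 note: pathway switched on by Shh-conditioned medium diluted 1 in 25 in low serum; 100 nL library stock added to about 40 µL; 0% = median of neutral wells and 100% = positive control level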
YB-1 expression: inhibitors of YB-1 gene expression, primary screen, cell-based, fluorescence; U2OS, qRT-PCR YB-1 vs CDIP delta delta Cp, 16 h; stronger effect = higher value; zero = DMSO, each unit about twofold; delta delta Cp (YB-1 minus CDIP) (concentration not given with the values); actives 0.37% (n = 30,000); AID 434959, 2010;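 active = delta delta Cp rounded down to an integer at or above 3, about 3 SD of DMSO wells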;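 note: higher means less YB-1 transcript or more CDIP transcript relative to DMSO; stock transfer was 100 nL into about 100 µL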
MITF inhib: inhibitors of MITF, primary screen, MITF inhibitor project, cell-based, luminescence; TRPM1 promoter luciferase, 24 h; inhibition, % (concentration not given with the values); actives 0.28% (n = 37,000); AID 2240, 2010;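 active = most replicates at 85% or more, or half of them and the mean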;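 note: human melanocyte line stably carrying TRPM1 promoter luciferase reporter; 0% = vehicle wells and 100% = a positive control; the first replicate is given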
* marks the source's active call; other numbers are inactive results.

COc1cccc(N(CC(=O)Nc2cccc(Cl)c2C)S(C)(=O)=O)c1 was read as PD-1 reversal -1.1 and MITF inhib -4.
Cc1ccc(S(=O)(=O)Nc2cccc3c2O[C@@H](CN(C)Cc2ccc(-c4ccccc4)cc2)[C@@H](C)CN([C@@H](C)CO)C3=O)cc1 was read as PD-1 reversal -1.3, Hedgehog inh 28, YB-1 expression -0.14 and MITF inhib 8.
C[C@H](CO)N1C[C@H](C)[C@@H](CN(C)C(=O)Nc2ccccc2)Oc2c(NC(=O)c3ccncc3)cccc2C1=O was read as Hedgehog inh -3, YB-1 expression -0.35 and MITF inhib -3.
CN(C)/C=N/c1c(C#N)cnn1-c1ncnc2sc3c(c12)CCC3 was read as PD-1 reversal -0.4, YB-1 expression -0.24 and MITF inhib 2.
`COC(=O)c1ccccc1NC(=O)C(C)Oc1ccccc1` (stereo not given) gave PD-1 reversal -4.9 and MITF inhib -12.
`Cc1cccc(NC(=O)COc2ccc(S(=O)(=O)N3CCCCC3)cc2Cl)c1C` gave PD-1 reversal -10 and MITF inhib 16.
For Cc1ccc(S(=O)(=O)N(C)C[C@@H]2Oc3c(NS(C)(=O)=O)cccc3C(=O)N([C@H](C)CO)C[C@H]2C)cc1 the results were PD-1 reversal 0.7, Hedgehog inh -15, YB-1 expression -0.095 and MITF inhib -2.
`Cc1c(CC(=O)O)c(=O)oc2c(C)c(OC(C)C(=O)O)ccc12` (stereo not given) gave PD-1 reversal 2.1 and MITF inhib -26.
Screening C[C@@H]1CCCCO[C@H](CN(C)Cc2ccncc2)[C@@H](C)CN([C@H](C)CO)C(=O)c2cc(NC(=O)c3ccncc3)ccc2O1 returned Hedgehog inh -14, YB-1 expression 0.019 and MITF inhib -6.
C[C@H](CO)N1C[C@H](C)[C@@H](CN(C)Cc2ccccc2)Oc2ccc(NC(=O)C3CC3)cc2C1=O was read as PD-1 reversal 0.3, YB-1 expression 0.18 and MITF inhib -9.
C[C@H](CO)N1C[C@H](C)[C@@H](CN(C)S(=O)(=O)c2cccs2)Oc2c(NC(=O)Nc3ccc4c(c3)OCO4)cccc2C1=O was read as PD-1 reversal -0.6, Hedgehog inh 25, YB-1 expression -0.16 and MITF inhib -4.
`C[C@@H]1CN([C@H](C)CO)C(=O)Cc2cc(NS(C)(=O)=O)ccc2O[C@H]1CN(C)S(=O)(=O)c1ccccc1` gave PD-1 reversal 0.7, Hedgehog inh -4, YB-1 expression 0.023 and MITF inhib -8.
`C[C@@H]1CN([C@H](C)CO)C(=O)c2cccc(NC(=O)Nc3ccc(C(F)(F)F)cc3)c2O[C@@H]1CN(C)Cc1ccc(-c2ccccc2)cc1` gave PD-1 reversal -2.2, Hedgehog inh -39, YB-1 expression -0.23 and MITF inhib -2.
For COc1ccc(NC(=O)N(C)C[C@@H]2Oc3c(NC(=O)c4ccc(-c5nccs5)cc4)cccc3C(=O)N([C@H](C)CO)C[C@H]2C)cc1 the results were PD-1 reversal 0.4, Hedgehog inh -8, YB-1 expression -0.29 and MITF inhib 1.
`C[C@H](CO)N1C[C@H](C)[C@@H](CN(C)C(=O)NC2CCCCC2)Oc2c(NC(=O)c3ccncc3)cccc2C1=O` gave PD-1 reversal 2.5, Hedgehog inh -40, YB-1 expression -1.3 and MITF inhib -5.

Structures shown so far that contain nitrogen in an aromatic ring:
C[C@H](CO)N1C[C@H](C)[C@@H](CN(C)C(=O)Nc2ccccc2)Oc2c(NC(=O)c3ccncc3)cccc2C1=O was read as Hedgehog inh -3, YB-1 expression -0.35 and MITF inhib -3.
CN(C)/C=N/c1c(C#N)cnn1-c1ncnc2sc3c(c12)CCC3 was read as PD-1 reversal -0.4, YB-1 expression -0.24 and MITF inhib 2.
Screening C[C@@H]1CCCCO[C@H](CN(C)Cc2ccncc2)[C@@H](C)CN([C@H](C)CO)C(=O)c2cc(NC(=O)c3ccncc3)ccc2O1 returned Hedgehog inh -14, YB-1 expression 0.019 and MITF inhib -6.
For COc1ccc(NC(=O)N(C)C[C@@H]2Oc3c(NC(=O)c4ccc(-c5nccs5)cc4)cccc3C(=O)N([C@H](C)CO)C[C@H]2C)cc1 the results were PD-1 reversal 0.4, Hedgehog inh -8, YB-1 expression -0.29 and MITF inhib 1.
`C[C@H](CO)N1C[C@H](C)[C@@H](CN(C)C(=O)NC2CCCCC2)Oc2c(NC(=O)c3ccncc3)cccc2C1=O` gave PD-1 reversal 2.5, Hedgehog inh -40, YB-1 expression -1.3 and MITF inhib -5.

(more compounds)
`COc1ccc(Cl)cc1NC(=O)CSc1nnc(-c2ccccc2F)n1C` gave PD-1 reversal -1.1 and MITF inhib 29.
Screening Cc1ccc(S(=O)(=O)NC(C)C(=O)Nc2ccccc2F)cc1 (stereo not given) returned PD-1 reversal 0.1 and MITF inhib -2.
CN1C(=O)CC(C(=O)NCCc2ccccc2)SC1=Nc1ccc(I)cc1 (stereo not given) was read as PD-1 reversal -0.8, Hedgehog inh -20, YB-1 expression 0.087 and MITF inhib -3.
`O=C(CC1(O)C(=O)N(C/C=C/c2ccccc2)c2ccccc21)c1ccccn1` (stereo not given) gave PD-1 reversal -5.8 and MITF inhib -15.
C[C@H]1CN([C@@H](C)CO)C(=O)c2cc(NC(=O)Cc3cn(C)c4ccccc34)ccc2O[C@H]1CN(C)C(=O)Nc1cccc2ccccc12 was read as PD-1 reversal -0.2, Hedgehog inh 4, YB-1 expression -0.3 and MITF inhib 42.
Screening C[C@@H]1CCCCO[C@@H](CN(C)S(=O)(=O)c2cn(C)cn2)[C@@H](C)CN([C@H](C)CO)C(=O)c2cc(NC(=O)Nc3ccccc3)ccc2O1 returned Hedgehog inh -17, YB-1 expression -0.14 and MITF inhib 2.
Screening Cc1onc(-c2ccccc2)c1C(=O)NCCCn1ccnc1 returned PD-1 reversal 0.8 and MITF inhib -9.
For COc1ccccc1NC(=O)c1c(NC(=O)c2cccnc2)sc(C)c1C the results were PD-1 reversal -3.6 and MITF inhib -75.
Screening C[C@@H]1CN([C@@H](C)CO)C(=O)c2cc(NS(=O)(=O)c3cccs3)ccc2O[C@@H]1CN(C)Cc1ccc(Cl)c(Cl)c1 returned PD-1 reversal -2.3, Hedgehog inh 37, YB-1 expression -0.022 and MITF inhib 9.
`Cc1ccccc1NC(=O)C(=O)NCc1cccnc1` gave PD-1 reversal 1.1 and MITF inhib -22.
C[C@@H]1CN([C@H](C)CO)C(=O)Cc2cc(NC(=O)NC3CCCCC3)ccc2O[C@@H]1CN(C)S(=O)(=O)c1cccs1 was read as PD-1 reversal -2.0, Hedgehog inh -67, YB-1 expression 0.16 and MITF inhib -2.
Screening C[C@H]1CN([C@@H](C)CO)C(=O)Cc2cc(NC(=O)Nc3ccc4c(c3)OCO4)ccc2O[C@@H]1CN(C)S(=O)(=O)c1ccccc1 returned PD-1 reversal -0.4, Hedgehog inh -9, YB-1 expression 0.061 and MITF inhib -9.
Screening Cn1c2ccccc2c2nnc(SCc3ccc4nonc4c3)nc21 returned PD-1 reversal -0.6 and MITF inhib 42.
Screening Cc1noc(C)c1NC(=O)Nc1ccc2c(c1)CC(=O)N([C@H](C)CO)C[C@@H](C)[C@@H](CN(C)S(C)(=O)=O)O2 returned PD-1 reversal 2.3, Hedgehog inh 7 and MITF inhib -7.
`C[C@@H]1CCCCO[C@H](CN(C)C)[C@@H](C)CN([C@H](C)CO)C(=O)c2cc(NC(=O)Cc3ccccc3)ccc2O1` gave PD-1 reversal 0.8, Hedgehog inh -2, YB-1 expression 0.62 and MITF inhib -6.
For Cc1ccc(-c2cc(C(F)(F)F)n3ncc(C(=O)NCc4ccco4)c3n2)cc1 the results were PD-1 reversal -4.8 and MITF inhib -15.
`Cc1noc(C)c1NC(=O)Nc1ccc2c(c1)C(=O)N([C@@H](C)CO)C[C@H](C)[C@@H](CN(C)C)O2` gave PD-1 reversal 0.4, Hedgehog inh 29, YB-1 expression -0.37 and MITF inhib 5.
CC(C)NC(=O)N(C)C[C@H]1Oc2ccc(NC(=O)Cn3cnnn3)cc2CC(=O)N([C@H](C)CO)C[C@H]1C was read as PD-1 reversal 0.7, Hedgehog inh -39, YB-1 expression -0.39 and MITF inhib 4.
C[C@@H]1CN([C@H](C)CO)C(=O)c2cc(NS(C)(=O)=O)ccc2O[C@H]1CN(C)C(=O)Nc1cccc2ccccc12 was read as PD-1 reversal 1.4, YB-1 expression 0.25 and MITF inhib 0.
`CC(=O)c1cccc(NC(=O)CN(c2cc(Cl)c(Cl)cc2Cl)S(C)(=O)=O)c1` gave PD-1 reversal 0.3 and MITF inhib 0.
C[C@H](CO)N1C[C@H](C)[C@@H](CN(C)Cc2ccc(C(F)(F)F)cc2)Oc2ccc(NC(=O)Nc3ccccc3)cc2C1=O was read as Hedgehog inh -17, YB-1 expression 0.097 and MITF inhib 7.
`CCCCNc1c(C(=O)OCC)c(C)nc2c1cnn2CC` gave Hedgehog inh -34, YB-1 expression 0.16 and MITF inhib -23.
Cc1noc(C)c1NC(=O)N(C)C[C@H]1Oc2ccc(NC(=O)Cc3cn(C)c4ccccc34)cc2CC(=O)N([C@H](C)CO)C[C@H]1C was read as PD-1 reversal 1.9, Hedgehog inh -1, YB-1 expression 1.1 and MITF inhib 3.
Cc1cc(NC(=O)C(=O)NCCCn2ccnc2)ccc1Br was read as PD-1 reversal 0.5 and MITF inhib -66.
Screening CC(C)NC(=O)N(C)C[C@H]1OCCCC[C@@H](C)Oc2ccc(NC(=O)CCC(F)(F)F)cc2C(=O)N([C@H](C)CO)C[C@@H]1C returned Hedgehog inh -30, YB-1 expression 0.2 and MITF inhib -11.
Screening COc1ccc(NC(=O)Nc2ccc3c(c2)C(=O)N([C@H](C)CO)C[C@H](C)[C@@H](CN(C)Cc2ccc(C(=O)O)cc2)OCCCC[C@@H](C)O3)cc1 returned PD-1 reversal 2.1, Hedgehog inh -42, YB-1 expression -0.26 and MITF inhib 0.
Screening O=C(NC(Nc1ccc(Cl)cc1)C(=O)c1ccccc1)c1ccccc1 (stereo not given) returned PD-1 reversal 0.4, Hedgehog inh 17, YB-1 expression 0.0063 and MITF inhib 0.
`COc1ccc(S(=O)(=O)N(C)C[C@@H]2Oc3ccc(NC(=O)Cc4cn(C)c5ccccc45)cc3CC(=O)N([C@H](C)CO)C[C@@H]2C)cc1` gave PD-1 reversal 0.9, Hedgehog inh 6, YB-1 expression -0.51 and MITF inhib 9.
Screening C[C@H](CO)N1C[C@H](C)[C@@H](CN(C)S(=O)(=O)c2ccccc2)Oc2ccc(NS(=O)(=O)c3cn(C)cn3)cc2C1=O returned PD-1 reversal 0.2, Hedgehog inh -4, YB-1 expression 0.039 and MITF inhib -7.
`Cc1ccnc(SCC(=O)Nc2oc(-c3ccccc3)c(-c3ccccc3)c2C#N)n1` gave PD-1 reversal -1.8 and MITF inhib 11.
C[C@H](CO)N1C[C@H](C)[C@H](CN(C)C(=O)Nc2ccc(C(F)(F)F)cc2)Oc2c(NC(=O)c3ccc(-c4nccs4)cc3)cccc2C1=O was read as PD-1 reversal -7.5, Hedgehog inh 46, YB-1 expression 2.2 and MITF inhib 32.
Screening O=C(c1cccc2c1-c1ccccc1C2)N1CCCCC1 returned PD-1 reversal -1.6, Hedgehog inh -10, YB-1 expression -0.14 and MITF inhib 15.
Screening O=C(Nc1sc2c(c1C(=O)NCc1cccnc1)CCCC2)c1ccco1 returned PD-1 reversal 0.5 and MITF inhib -27.
For C[C@@H]1CN([C@H](C)CO)C(=O)c2cc(NC(=O)Cc3cn(C)c4ccccc34)ccc2O[C@H]1CN(C)Cc1ccc(Oc2ccccc2)cc1 the results were PD-1 reversal 2.0, YB-1 expression 0.33 and MITF inhib 19.
`CC1(C)CC(=O)C2=C(C1)N(CCCN1CCOCC1)C(=O)C2(NC(=O)c1ccccc1)C(F)(F)F` (stereo not given) gave PD-1 reversal 2.6 and MITF inhib -6.
COc1ccc(S(=O)(=O)N(C)C[C@@H]2Oc3ccc(NS(=O)(=O)c4cn(C)cn4)cc3C(=O)N([C@@H](C)CO)C[C@H]2C)cc1 was read as PD-1 reversal -0.1, YB-1 expression 0.086 and MITF inhib -2.
`C[C@@H]1CN([C@H](C)CO)C(=O)c2cccc(NS(=O)(=O)c3ccccc3)c2O[C@@H]1CN(C)C(=O)Nc1ccc2c(c1)OCO2` gave Hedgehog inh -64, YB-1 expression -0.28 and MITF inhib -14.
Screening COc1ccc(CCNC(=O)c2ccnc(C(C)(C)C)c2)cc1OC returned PD-1 reversal 0.0 and MITF inhib 18.
`COc1ccc(NC(=O)N(C)C[C@@H]2Oc3ccc(NC(=O)Cc4cn(C)c5ccccc45)cc3C(=O)N([C@H](C)CO)C[C@H]2C)cc1` gave PD-1 reversal -0.5, YB-1 expression 0.16 and MITF inhib 8.
For CCCCC(=O)O[C@H]1CCC2C3CCc4cc(O)ccc4C3CC[C@@]21C (stereo not given in full) the results were Hedgehog inh 61, YB-1 expression 0.052 and MITF inhib -24.
`C[C@@H]1CN([C@@H](C)CO)C(=O)Cc2cc(NC(=O)CCCCCC(=O)Nc3ccccc3N)ccc2O[C@@H]1CN(C)Cc1ccccc1` gave PD-1 reversal -1.0, YB-1 expression -0.7 and MITF inhib 18.

Assay outcomes: PubChem BioAssay, Broad Institute

Not all compounds are listed; count on the stated rates, not on these rows.
